NPYLR7 agonist – mosquito NPYLR7 agonism. AID 1259423. actives 0.15% (n = 270,000). activation, % at 10 µM. HEK293T NPYLR7/Galpha15, GCaMP6s calcium fluorescence; in the data active = activation above about 40%;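 note: 0% = vehicle and 100% = reference agonist at the receptor; some compounds past the cut are filed as inactive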
NPYLR7 agonist max-min – also measured in NPYLR7 agonist; calls as there; activation, %; measured here: Max-Min RFU normalised activation; some inactives read as strong as hits;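 span of the calcium signal over five minutes; 0% = vehicle and 100% = native peptide agonist; compound fluorescence can raise it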
Active calls of the source: *; & = joins results of further samples. This is a subset (hit frequency here may not be typical).

Structure	NPYLR7 agonist max-min	NPYLR7 agonist
CC(=O)c1cc(C(=O)OCC(=O)NCc2ccc(C)cc2)c2ccccn12	-7.5	3.4
CCOC(=O)N1CCC(NC(=O)C(C(C)C)N2CCc3ccccc3C2)CC1 (configuration not stated)	-11.4	-6.6
CCCc1nc2c3ccccc3ncn2n1	-2.6	-0.6
O=C(CCC1CCN(C(=O)C2=CCCCC2)CC1)Nc1ccccc1	-10.2	-8.9
Cc1ccc(NC(=O)C2(C)CCN2CC(C)C)cc1C (configuration not stated)	2.4	3.9
CC1Cc2cc(-c3cc(CNC(=O)c4ccc(S(=O)(=O)N(C)C)cc4)no3)ccc2O1 (configuration not stated)	15.8	15.1
O=c1c(CN(Cc2ccsc2)CC2CCCO2)coc2ccccc12 (configuration not stated)	-5.5	-2.0
O=C(C1=C(O)C(=O)N(CCN2CCOCC2)C1c1ccc(Cl)c(Cl)c1)c1ccco1 (configuration not stated)	-1.4	-3.9
Cc1cccc(CC(=O)Nc2c(C)nc3sccn3c2=O)c1	-4.0	3.8
O=C(CCNS(=O)(=O)c1ccc2ccccc2c1)N1CCCCCC1	7.9	10.2
CN(Cc1cccnc1)C(=O)c1ccc2oc(CCc3ccccc3)nc2c1	2.7	5.0
COc1ccc(NC(=O)N(Cc2ccco2)C(C)c2nc3ccccc3c(=O)n2-c2ccccc2)cc1 (configuration not stated)	3.8	0.7
CCOC1(OCC)N=C(N)C2(C#N)C3(CCCCC3)C12C#N (configuration not stated)	2.0	5.6
Cc1cc(C)cc(N2C(=O)CSC2c2cccc(NC(=O)/C=C/c3ccccc3)c2)c1 (configuration not stated)	33.8	34.3
COc1ccc(Cl)cc1-c1cnccc1N	-4.0	-3.4
Cc1noc(C)c1C(=O)NCC(C)(C)C(N)=O	4.5	4.9
Cn1ccc(NC(=O)CN2CCCC(CCc3ccc(F)cc3)C2)n1 (configuration not stated)	2.7	3.4
Clc1ccccc1-c1nnc2sc(-c3ccncc3)nn12	-2.9	5.7
C=CCn1nc(C(=O)N2CCOCC2)c2c1CCC(NCc1nc(-c3ccccc3)cs1)C2 (configuration not stated)	-4.9	10.2
COc1ccc(-c2nc3n(n2)C(c2ccccc2Cl)C(C(=O)Nc2cccnc2)=C(C)N3)cc1 (configuration not stated)	0.5	2.8
CC(=O)c1c(C)[nH]c(C(=O)C(C)N2CCN(CC(=O)N3CCCCCC3)CC2)c1C (configuration not stated)	10.0	6.0
COc1ccc(-n2ccnc2-c2cccc(OC)c2OC)cn1	-2.5	-0.2
O=C(NCCC1=CCCCC1)c1ccc(-c2ccc3c(c2)OCO3)s1	6.2	-8.5
COC(=O)C(C)NC(=O)C(C)C (configuration not stated)	-16.4	-11.9
CN(C)c1cccc(CNc2nccc3[nH]c(-c4ccco4)nc23)c1	-1.6	3.2
CC(C)N1C(=O)c2ccccc2[C@@H](C(=O)N(C)CCc2ccccn2)[C@@H]1c1ccccc1	-12.1	-7.7
O=S(=O)(c1ccc(S(=O)(=O)N2CCCC2c2cccs2)cc1)N1CCOCC1 (configuration not stated)	3.8	-0.9
Cc1ccc(-n2nnc3c(SCC(=O)N4CCOCC4)ncnc32)cc1	10.0	12.2
O=C(Nc1cccc(Oc2ccccc2)c1)c1cccnc1Oc1ccc(Cl)cc1	6.7	21.1
CCNC(=O)N1CCC(Cc2cccc(C(=O)O)c2)C1 (configuration not stated)	0.1	2.3

(continued)
Structure	NPYLR7 agonist max-min	NPYLR7 agonist
Fc1ccc2nc(Nc3nnc(-c4ccccc4)o3)sc2c1	-8.0	-6.7
CS(=O)(=O)NCC1CCCN(C(=O)c2ccc3c(c2)CCCC3)C1 (configuration not stated)	0.2	3.4
Cn1ccn2ncc(C(=O)NCC3OCCc4ccccc43)c12 (configuration not stated)	-3.3	-1.8
COc1cc(C2Nc3ccccc3C(=O)N2Cc2ccc(C)cc2)ccc1OCC(N)=O (configuration not stated)	5.1	0.0
CCc1nc2c(OCC(=O)c3ccc(F)cc3)cccn2c1N(C)C(C)=O	-14.5	-11.7
O=C(CCN1C(=O)S/C(=C/c2ccccc2)C1=O)NNC(=O)c1ccncc1	-2.7	-5.4
CCCn1c(SC(C)C(N)=O)nc2ccc(C(F)(F)F)cc21 (configuration not stated)	-0.7	1.4
C=CCNC(=O)c1ccccc1N1CCC(NC(=O)c2ccc(F)cc2)CC1	8.5	0.7
CCOC(=O)c1[nH]c(C)c(C)c1C	7.8	1.3
CN(C)CC1(O)CCCN(CCCOc2ccc(F)cc2)CC1 (configuration not stated)	4.9	5.9
O=C(c1cnccn1)N1CCOC(COc2ccc3c(c2)CCCC3)C1 (configuration not stated)	28.4	18.0
O=S(=O)(Nc1cccc2ccccc12)c1ccccc1F	-2.2	3.7
COc1ccc(/C=C2N=C(/C=C/c3ccc(C)cc3)OC\2=O)c(OC)c1	-5.0	-0.2
COc1cccc(C2CCCCN2Cc2nc(Cc3ccccc3F)no2)c1 (configuration not stated)	-1.2	5.6
O=C(NC1=NCCS1)c1cccc(OCc2cscn2)c1	-3.2	-2.9
Cc1noc(C)c1C(=O)OCC(=O)N1CCC(C(N)=O)CC1	-6.5	-3.3
COc1ccc(/C=C/C(=O)N2CCC3(CC2)CC3C(=O)N(C)Cc2nonc2C)cc1 (configuration not stated)	-7.7	-3.9
CC(C)N(C)S(=O)(=O)c1ccc(CNC(=O)c2ccc[nH]c2=S)cc1	3.2	5.9
c1ccc(-c2nnc(CSc3nnc4ccccn34)o2)cc1	0.2	0.0
C=CCc1n[nH]c(Cc2ccccc2)n1	-1.5	0.9
COc1cccc(CSc2nnc(CNC(=O)c3cccc(Br)c3)n2-c2ccc(C)cc2)c1	26.5	21.6
NC(=O)C1CCN(C(=O)CCC2CCCC2)CC1	15.2	2.2
CCOC1(C)C(=O)c2ccccc2N1Nc1ccccc1C(=O)CC (configuration not stated)	2.1	2.5
O=c1ccc(-c2ccc(Cl)cc2)nn1CCCNS(=O)(=O)Cc1ccccc1	1.8	2.5
Cc1ccc(C(=O)OCC(=O)c2ccc(Br)s2)o1	0.7	1.2
O=C(Cc1ccccc1)NC1CCN(c2ccccc2C(=O)NCc2cccnc2)CC1	24.4	24.4
O=C(Nc1ccc(S(=O)(=O)Nc2ccccn2)cc1)c1cccnc1Nc1cc(Cl)cc(Cl)c1	-11.2	-7.0
O=C(CCc1cn2ccccc2n1)NCCc1nc2c(s1)CCC2	8.8	19.2
COc1ccc2c(c1)CNC(c1ccccc1)C2 (configuration not stated)	-7.0	0.5
COc1ccc(C)cc1/C=C/C(=O)NCC(c1ccccc1Cl)N(C)C (configuration not stated)	2.5	3.8

Among those listed so far, these contain bromine.
Structure	NPYLR7 agonist max-min	NPYLR7 agonist
COc1cccc(CSc2nnc(CNC(=O)c3cccc(Br)c3)n2-c2ccc(C)cc2)c1	26.5	21.6
Cc1ccc(C(=O)OCC(=O)c2ccc(Br)s2)o1	0.7	1.2

Continuation:
Structure	NPYLR7 agonist max-min	NPYLR7 agonist
Cc1ccc(CC(=O)NCc2cc(Cl)c3c(c2)OCCO3)s1	-23.5&0.2	-22.2&-0.9
C=CCC(O)(CC=C)c1ccc(CN(CCCOC)Cc2cccc(F)c2)o1	36.2	-5.1
CNC(=O)[C@@H]1C[C@H](N)CN1C(=O)c1oc(COc2ccccc2)cc1C	14.3	17.2
N#CC(C(=O)c1cccc(NC(=O)C2CC2)c1)c1ccc(C(F)(F)F)cn1 (configuration not stated)	3.1	5.0
COc1cc(OC)cc(C2SCCN2C(=O)Nc2cccc(Cl)c2)c1 (configuration not stated)	5.9	-1.1
CCCCOC(=O)C1=C(C)NC2=C(C(=O)CCC2)C1c1ccc(Cl)cc1 (configuration not stated)	-10.0	-1.4
O=C(CCN1CCCC(O)C1)NC(=O)NCc1ccccc1 (configuration not stated)	1.4	3.5
O=C(O)c1ccccc1Nc1cccc(OCc2ccc3ccccc3n2)c1	-27.8	3.9
CCc1ccc(CN(Cc2cccnc2)C(=O)NCc2ccccn2)cc1	1.3	4.8
Cc1c(C(=O)Nc2ccccc2)cc(C#N)c2[n+]1C(CBr)CS2 (configuration not stated)	-10.6	-4.3
COC(=O)c1ccc(Cn2cnc3c(nnn3C)c2=O)cc1	13.4	1.8
COc1cc(Cl)cc(C(=O)N2CC[C@@H](N)[C@@H](OC)C2)c1	-20.0	5.7
COCCCn1cc(C(=O)N2CCN(CCOC)CC2)c2nn(-c3ccccc3)c(=O)c-2c1	-6.7	-4.3
C=Cc1ccc(Cn2c(C)c(C(=O)Nc3ccc(OC)c(OC)c3)sc2=O)cc1	-7.8	-5.5
CSc1ccccc1NC(=O)C1CCCN(c2ccc(-c3ccco3)nn2)C1 (configuration not stated)	-13.0	-9.4
CCN(CC)C(=O)Oc1ccc2c(ccn2Cc2ccccc2Br)c1-c1cc(C)cc(C)c1	0.1	1.8
CC(C)OCCCNC(CC(=O)Nc1cc(Cl)ccc1Cl)C(=O)O (configuration not stated)	-1.9	-1.0
CCC(C)(C)NC(=O)c1ccc(-n2nc(-c3cccc(Cl)c3)cc2N)cc1	-19.5	-15.1
CCCCC(CC)C(=O)Nc1ccc(-c2cccc(-c3ccc(OC)cc3)n2)cc1 (configuration not stated)	0.8	0.3
Cc1ccoc1C(=O)Nc1nc(CN2CC(C)OC(C)C2)cs1 (configuration not stated)	5.3	8.6
CN(C)CCN(C(=O)c1cccc(N2C(=O)CCC2=O)c1)c1nc2ccc(Cl)cc2s1	-4.9	-2.7
CC1Oc2ccc(C#N)cc2N(Cc2ccc(F)c(Cl)c2)C1=O (configuration not stated)	5.0	7.4
CC(=O)CN1C(=O)CC(C)N(C(C)=O)c2ccccc21 (configuration not stated)	-5.4	0.0
COc1ccc(-c2cc(NC(=O)C3CC3)ccc2OC)cc1	2.4	3.7
CCC(C)N(Cc1ccsc1)C(=O)c1ccc2c(c1)OCC(=O)N2 (configuration not stated)	0.0	2.4
O=C(NC1CCN(c2ccccc2C(=O)N2CCN(C3CCCCCC3)CC2)CC1)c1cccc(Cl)c1	24.0	7.2
COc1ccc(-c2ncc(CN3CCN(CCC(C)C)C(CCO)C3)cn2)cc1 (configuration not stated)	-3.0	-1.1
COc1cc(F)c(S(=O)(=O)N(C)c2cnn(C)c2)cc1OC	0.8	0.7
Cc1ccccc1Oc1cc(N2CCN(C(=O)C3CCC3)C(C)C2)ncn1 (configuration not stated)	-2.6	-9.2
C=CCCC(O)(CCC=C)c1ccc(CN(CCOC)Cc2ccccc2C)o1	6.4	0.8

Entries above that contain a CF3 group, in the order listed:
Structure	NPYLR7 agonist max-min	NPYLR7 agonist
CCCn1c(SC(C)C(N)=O)nc2ccc(C(F)(F)F)cc21 (configuration not stated)	-0.7	1.4
N#CC(C(=O)c1cccc(NC(=O)C2CC2)c1)c1ccc(C(F)(F)F)cn1 (configuration not stated)	3.1	5.0

Continued.
Structure	NPYLR7 agonist max-min	NPYLR7 agonist
Cc1ccc(OC(C)C(=O)NC2CCC(C)CC2)cc1 (configuration not stated)	0.1	0.3
O=C(c1ccco1)N(CCCn1ccnc1)c1nc2ccc(Cl)cc2s1	-13.8	-8.7
CS(=O)(=O)N1CCCC1C(=O)Nc1nnc(-c2cc3ccccc3o2)o1 (configuration not stated)	-0.1	0.0
CCc1nn2c(N3CCN(CC#N)CC3)cc(C)nc2c1-c1ccccc1	1.3	1.5
C=CCN1C(=O)C(=Cc2c(N3CCC(C)CC3)nc3ccc(C)cn3c2=O)SC1=S	4.3	5.2
CC(=O)O[C@@H](C)C(=O)N1CCN(Cc2cc(=O)c(OCc3ccccc3Cl)co2)CC1	10.0	21.4
O=C(Nc1cccc(Oc2ccccc2)c1)C1CC=CCC1C(=O)N1CCN(c2ccccn2)CC1 (configuration not stated)	-20.1	-12.3
COC(=O)[C@H]1C[C@@H](O)CCN1C(=O)c1nn(C)c2ccc(C)cc12	-11.2	-8.1
CCCCc1ccc(S(=O)(=O)Nc2ccc(OC)cc2C(=O)NCc2ccccc2)cc1	2.8	5.5
CC1CCCC(C)N1C(=O)Cn1cnc2sc3c(c2c1=O)CCC3 (configuration not stated)	3.8	0.5
CCn1c(CC2CCNCC2)nn(CCOc2ccc(F)cc2)c1=O	0.9	3.4
CCOC(=O)Cn1c(=NC(=O)c2cc(C)no2)sc2cc(Cl)ccc21	15.1	10.8
COc1ccc2c(Cl)c(C(=O)O)sc2c1Cl	-1.0	0.0
CCN(CC)C(=O)c1cc(NC(=O)Nc2cccc(C(F)(F)F)c2)ccc1N1CCCC1	11.4	8.5
CCCN1CCC(N[C@H]2C[C@@H](C(=O)N3CCc4cc(OC)c(OC)cc4C3)N(Cc3ccc4ccccc4c3)C2)CC1	5.8	17.0
O=C(NCC(=O)N1CCC(C(=O)Nc2ccccc2)CC1)c1ccc(Br)o1	-17.6	-18.9
CN1C(=O)C(=O)c2ccccc21	3.1	3.2
O=C(CN1CCN(CC2CCCO2)CC1)NCCc1ccc(Cl)cc1 (configuration not stated)	-0.9	1.3
CCOC(=O)Cn1c(CN2CCOCC2)nc2c1c(=O)[nH]c(=O)n2C	12.4	0.0
CCC(=O)Nc1sc2c(c1C(=O)Nc1ccc(Cl)cc1)CCC(C)C2 (configuration not stated)	-2.0	0.8
COc1cc(C)ccc1Oc1cc(N2CCN(C(=O)Cc3ccc(F)cc3)C(C)C2)ncn1 (configuration not stated)	13.3	12.0
COCCNC(=O)Cn1c(CO)cnc1SCC(=O)Nc1ccc(C(F)(F)F)cc1	2.6	6.3
COc1cccc(Cn2c(=O)c(C(=O)O)nn(-c3cccc(Cl)c3)c2=O)c1	43.8	32.0
CCOC(=O)c1cc(C(C)(C)C)n(C2CCN(S(=O)(=O)c3ccccc3C)CC2)n1	4.7	4.3

Screening results as filed in PubChem BioAssay.
